UCH37 inh = human UCH37 deubiquitinating enzyme inhibition | Q9Y5K5 | purified proteasome/UCH37, Ub-AMC cleavage fluorescence | inhibition, % (concentration not given with the values) | 330,000 compounds, 0.33% hits;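 active means mean of two replicates above 20%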;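 further: 0% = compound-free wells with enzyme and 100% = wells lacking proteasome; stock transfer was 100 nL into about 20 µL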
Target sequence (Q9Y5K5 whole entry, looked up): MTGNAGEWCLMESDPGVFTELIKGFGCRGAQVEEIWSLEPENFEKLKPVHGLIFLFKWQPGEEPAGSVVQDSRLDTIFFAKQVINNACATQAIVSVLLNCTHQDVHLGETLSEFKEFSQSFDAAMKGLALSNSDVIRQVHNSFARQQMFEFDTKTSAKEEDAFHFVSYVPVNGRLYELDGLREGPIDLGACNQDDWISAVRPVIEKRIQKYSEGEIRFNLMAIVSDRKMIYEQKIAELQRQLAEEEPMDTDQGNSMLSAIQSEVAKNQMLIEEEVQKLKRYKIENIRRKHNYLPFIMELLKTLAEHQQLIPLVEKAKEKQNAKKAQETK
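Schedule: 30 min plus 25 min, room temperature / Material: human UCH37 within purified proteasomes / Technique: AMC fluorescence intensity at 355/460 nm / Buffer or medium: pH 7.4 Tris-HCl (50 mM) with ovalbumin, ATP-MgCl2, DTT / Controls: wells without proteasome as full block, compound-free enzyme plus substrate as uninhibited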
ALR inh = human ALR oxidase inhibition via reduced H2O2. purified ALR, DTT oxidation, H2O2 HRP-luminol luminescence. inhibition, % (test concentration not listed). 290,000 compounds, 3.8% hits. AID 485317;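 active means mean and each replicate at 75% or more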;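 further: stock transfer was 7.5 nL into about 7.5 µL; 0% = neutral wells and 100% = wells with inactivated enzyme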
Ecoli rRNA inh = selective bacterial rRNA inhibition in E. coli. E. coli WT GFP vs humanized-ribosome RFP mutants, fluorescence, 24 h; hits give low values; DMSO median 0, no signal -100. GFP signal change (wild-type ribosome), % (no concentration beside the values). 350,000 compounds, 1.6% hits;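 active means significant combined selectivity score with lowered wild-type GFP, culture density cut under 30%, mutant RFP and density less affected; inactive means any of these conditions unmet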; further: one replicate is shown; some compounds called inactive have numbers as strong as hits
B2AR ag = activates human beta-2 adrenergic receptor causing internalization | AID 504454 | 340,000 compounds, 0.43% hits | P07550 | Am2.2-beta2AR cells, FAP receptor internalization, flow cytometry; reference of the scale not given here | response, % (test concentration not listed);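 active means response above a set limit, near 3 SD of response in nonfluorescent compounds, cut at about 42% in these data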;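 further: stock transfer was 100 nL into about 11 µL; a reference agonist was the positive control; negative values mostly stem from fluorescent compounds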
Target sequence (P07550 whole entry, looked up): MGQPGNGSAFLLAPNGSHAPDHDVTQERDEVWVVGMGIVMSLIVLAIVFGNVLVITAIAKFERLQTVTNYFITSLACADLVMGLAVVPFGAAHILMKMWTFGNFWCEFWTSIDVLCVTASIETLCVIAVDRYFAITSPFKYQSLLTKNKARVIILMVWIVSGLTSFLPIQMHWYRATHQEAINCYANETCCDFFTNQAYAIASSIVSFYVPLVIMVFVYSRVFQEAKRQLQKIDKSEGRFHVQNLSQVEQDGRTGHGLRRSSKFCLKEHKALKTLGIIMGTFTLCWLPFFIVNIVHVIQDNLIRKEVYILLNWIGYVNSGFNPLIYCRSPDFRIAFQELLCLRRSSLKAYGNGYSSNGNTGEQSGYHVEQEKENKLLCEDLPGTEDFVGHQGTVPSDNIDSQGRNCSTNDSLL
E coli growth = E. coli growth inhibition; Escherichia coli growth, OD600, 23 h; hits give low values; AID 1053175; 330,000 compounds, 0.21% hits; OD600 absorbance (test concentration not listed);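 active means OD600 absorbance below the run mean of sample wells minus 3.6 SD, in any replicate, cut at about 0.56 in these data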;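 further: stock transfer was 300 nL into about 60 µL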
FGF22 binding = FGF22 (human) thermal shift binding. 340,000 compounds, 1.5% hits. Q9HCT0. AID 651658. recombinant FGF22 thermal shift, SYPRO orange fluorescence; percent of sucrose octasulfate shift, DMSO zero. calls only at 9.99 µM;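 active means melting point raised past a set limit in the mean and every replicate; three in four hits are not shown here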
Target sequence (Q9HCT0 whole entry, looked up): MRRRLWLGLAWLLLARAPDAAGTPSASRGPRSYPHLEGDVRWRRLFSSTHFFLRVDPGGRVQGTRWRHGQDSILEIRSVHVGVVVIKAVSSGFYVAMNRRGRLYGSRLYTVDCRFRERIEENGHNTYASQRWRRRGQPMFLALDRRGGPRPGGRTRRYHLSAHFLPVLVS
HNF4A DNA FP = change in binding of human HNF4 alpha to DNA. P41235. HNF4a-FITC DNA binding, fluorescence polarization, 1 h. activity change, % at 10 µM. 360,000 compounds, 0.3% hits; in the data active means activity change above about 30%, passing the limit was not always enough;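 further: controls were the assay level and a saturating level of protein; the project sought stronger binding though the title names inhibitors; some compounds called inactive have numbers as strong as hits; positive values seem to mean higher polarization but the record does not say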
Ecoli rRNA inh OD600 = recorded beside Ecoli rRNA inh, whose call it bears; OD600 change, %; measured here: OD600 growth;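 optical density of the mix in the first replicate; 0 = DMSO median and -100 = no signal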
Ecoli rRNA inh RFP = recorded beside Ecoli rRNA inh, whose call it bears; RFP signal change, %; measured here: RFP humanized mutant strains;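 first replicate; 0 = DMSO median and -100 = no signal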
* marks the source's active call; other numbers are inactive results; i = inactive; x = not tested or not shown. Some of the compounds tested; the hit share may differ from the screen's.

Below each compound: UCH37 inh, ALR inh, Ecoli rRNA inh, Ecoli rRNA inh OD600, Ecoli rRNA inh RFP, B2AR ag, E coli growth, FGF22 binding, HNF4A DNA FP
1: O=[N+]([O-])c1ccccc1/C=N/N1CCN(c2ccccn2)CC1
 : x, -4, x, x, x, -3, x, x, 5.1
2: Cc1cc(C)c(S(=O)(=O)N2CCCC(C(=O)NCc3ccncc3)C2)c(C)c1 (stereo not drawn)
 : 0.4, -5, 1, -14, 0.1, -1, 0.69, i, 3.5
3: COCCN(C(=O)CN1CCc2ccccc21)c1c(N)n(Cc2ccccc2)c(=O)[nH]c1=O
 : 1.4, 28, 13, 24, 9.5, 11, 0.71, i, 25
4: O=[N+]([O-])c1cccc(C([O-])=C(C(=S)Nc2cccc3ccccc23)[n+]2ccccc2)c1
 : 2.5, x, 2, -13, 1.5, 3, 0.63, i, 2.1
5: Brc1cccc(C2Nc3cccc4cccc(c34)N2)c1
 : 3.7, 1, x, x, x, 6, 0.69, i, -2.1
6: COC(=O)C1=C(C)Nc2ncnn2C1c1ccccn1 (stereo not drawn)
 : -0.5, -1, x, x, x, -1, 0.65, x, 4.8
7: CCN1C(=O)N[C@@H](CCc2ccccc2)C(C(=O)OC)=C1C
 : -2.6, 6, -31, -59, -0.2, -1, x, i, 0.3
8: CCCCNCc1cc(Cl)c(OCCC)c(OCC)c1
 : 2.4, -17, x, x, x, 19, 0.66, x, -2.2
9: COc1ccc(C2C(C#N)=C(N)N(c3cccnc3)C3=C2C(=O)CCC3)cc1Cn1cc([N+](=O)[O-])cn1 (stereo not drawn)
 : 2.0, -36, x, x, x, -14, 0.73, x, 28
10: Cc1cc(C)n2c(SCC(=O)Nc3ncc(C(F)(F)F)cc3Cl)nnc2n1
 : 1.5, 6, x, x, x, -11, 0.69, x, 0.4
11: CCC1(c2ccc(F)cc2)NC(=O)N(CC(=O)NCC(=O)Nc2cccc(C)c2C)C1=O (stereo not drawn)
 : 0.6, -3, -2, -3, -0.2, 6, 0.64, i, 2.4
12: O=C1CCCN1c1ccc(S(=O)(=O)N2CCN(c3ccccn3)CC2)cc1
 : 1.4, -4, -1, -1, -2.2, -25, 0.7, x, -1.5
13: Cc1cc2c(=O)n(CC(=O)NCC(=O)Nc3ccc(C(C)C)cc3)cnc2s1
 : 2.6, -6, 1, 7, -0.9, 3, 0.64, i, -3.8
14: Cc1nc2ccccc2c(=O)n1NC(=O)/C=C/c1ccccc1
 : 5.3, -6, 4, 7, -1.2, 0, x, i, 2.1
15: CCOP(=O)(C1=C(O)C(=O)C(C(C)(C)C)=CC1=O)c1ccccc1 (stereo not drawn)
 : 17, x, 8, 0, -3.8, -1, 0.65, i, -6.0
16: FC(F)(F)c1cc(C(F)(F)F)c2ccc(N/N=C/c3ccccc3)nc2n1
 : x, 0, x, x, x, 2, x, x, 0.8
17: CCOc1ccccc1C(=O)OCC(=O)Nc1nnc(-c2ccccc2)o1
 : -0.3, x, -48, -66, -9.9, -1, 0.68, i, 1.6
18: CC(=NCCCN(C)C)C1=C(O)c2ccccc2C1=O
 : -0.5, 44, x, x, x, -7, 0.68, x, -1.5
19: COc1ccc(-c2cc3nc(C)cc(N4CCN(C(=O)c5ccoc5)CC4)n3n2)cc1
 : x, x, -6, 0, 5.0, x, x, i, -4.0
20: COCc1cc(C)nc(OCC(=O)N/N=C/c2ccc(-c3cc([N+](=O)[O-])ccc3Cl)o2)c1C#N
 : x, 4, 16, 13, 6.2, -4, x, i, 2.3
21: COc1ccc(-c2c3c(nc4sc(C(=O)Nc5ccccc5)c(N)c24)CCC3)cc1
 : -204, 0, x, x, x, 1, 0.67, x, 3.5
22: Cc1ccc(N/C(N)=N/c2nc(CSc3nnc(C)s3)cc(=O)[nH]2)c(C)c1
 : 0.5, -3, 19, 12, -0.8, 14, 0.65, i, 1.9
23: O=C(c1ccc(Cl)c(Cl)c1)N1CCC(=O)N([C@H](COCc2cccc(C(F)(F)F)c2)Cc2ccccc2)CC1
 : x, x, 18, 6, -1.0, x, x, i, 2.8
24: c1ccc2c(c1)CN1CCCC1=N2
 : 4.8, 1, 5, 18, 5.0, -9, 0.66, i, -0.8
25: CCCN1CCN(C(=O)c2ccc(CS(=O)c3ccc(Cl)cc3)o2)CC1 (stereo not drawn)
 : 4.7, -14, 7, 3, -4.3, -9, 0.68, i, -4.2
26: CC(C)n1c(-c2ccco2)csc1=Nc1cccnc1
 : -2.1, 92*, x, x, x, -1, 0.69, x, 0.6
27: COc1ccc(NC(=O)C2Cc3c(-c4ccco4)ccnc3O2)cc1OC (stereo not drawn)
 : x, x, -1, -9, 0.3, x, x, i, 5.2
28: Cc1cccc(NC(=O)c2cc(NC(=O)c3ccco3)ccc2Cl)n1
 : 2.8, 3, x, x, x, -8, 0.68, x, -0.2
29: COc1ccc(S(=O)(=O)c2c(O)c3ccc(C(=O)Nc4ccccc4Cl)cc3[nH]c2=O)cc1
 : 4.2, -2, 5, 1, -2.9, -18, 0.68, i, 1.5
30: COc1cc(C(=O)Nc2nc(C)cc(C)n2)cc(OC)c1OC
 : 0.0, -6, 7, -4, -0.2, -1, 0.69, i, 1.2

Compound profiles (already shown):
Cc1nc2ccccc2c(=O)n1NC(=O)/C=C/c1ccccc1 across the screens: UCH37 inh = 5.3; ALR inh = -6; Ecoli rRNA inh = 4; Ecoli rRNA inh OD600 = 7; Ecoli rRNA inh RFP = -1.2; B2AR ag = 0; E coli growth = x; FGF22 binding = i; HNF4A DNA FP = 2.1
O=[N+]([O-])c1cccc(C([O-])=C(C(=S)Nc2cccc3ccccc23)[n+]2ccccc2)c1 across the screens: UCH37 inh = 2.5; ALR inh = x; Ecoli rRNA inh = 2; Ecoli rRNA inh OD600 = -13; Ecoli rRNA inh RFP = 1.5; B2AR ag = 3; E coli growth = 0.63; FGF22 binding = i; HNF4A DNA FP = 2.1

Additional entries follow.
Below each compound: UCH37 inh, ALR inh, Ecoli rRNA inh, Ecoli rRNA inh OD600, Ecoli rRNA inh RFP, B2AR ag, E coli growth, FGF22 binding, HNF4A DNA FP
31: CN1CCN(c2ccc(NC(=O)c3ccc4c(c3)[nH]c(=O)n4Cc3ccc(F)cc3)cc2)CC1
 : 3.4, -11, x, x, x, 5, x, x, 4.1
32: Cc1ccc(C2CC2C(=O)NNC(=S)Nc2ccc(Cl)cc2)cc1 (stereo not drawn)
 : 1.0, 60, x, x, x, 6, 0.71, x, -3.6
33: COCCSc1nnc(NC(=O)C2CCCO2)s1 (stereo not drawn)
 : -0.2, -12, x, x, x, -5, 0.64, x, -2.6
34: O=C(c1ccc([N+](=O)[O-])cc1)N1CCN(C(=O)c2cccnc2)CC1
 : 1.9, -3, 9, 10, -0.5, -6, 0.63, i, 2.9
35: S=c1nc(-c2ccccc2)[nH]c2ccc(Br)cc12
 : 4.9, -16, x, x, x, 0, 0.66, i, -0.1
36: CC1(C)Cc2c(sc(NC(=O)c3ccccc3)c2C(=O)O)CO1
 : 8.3, 24, -22, -32, -3.6, -4, 0.69, i, -0.6
37: CC(C)OCC(O)CN1CCC(Cc2ccccc2)CC1 (stereo not drawn)
 : -1.6, 2, 7, 10, -1.8, 6, 0.73, i, 2.5
38: O=C(Nc1nnc(Cc2ccc(Cl)cc2)s1)c1ccco1
 : 2.1, -19, x, x, x, -11, 0.66, x, -1.3
39: CCN1C(=O)c2cccc3c(S(=O)(=O)N(C(=O)c4ccncc4)c4ccc(OC)cc4)ccc1c23
 : -18, -14, -31, -42, -9.0, 4, 0.69, i, 0.8
40: CCOC(=O)C1=CN(Cc2cccc(F)c2)S(=O)(=O)N(CC)C1c1ccccc1 (stereo not drawn)
 : 1.6, x, -10, -17, -5.2, -1, 0.72, i, 2.9
41: Cc1ccccc1S(=O)(=O)N1CCN(C)CC1
 : 0.7, -15, 14, 11, 1.0, 4, 0.67, i, -1.9
42: Cc1occc1C(=O)Nc1c(Cl)cccc1Cl
 : -2.9, 3, 3, 1, 2.6, 2, 0.71, i, -1.0
43: COc1cc2c(cc1OC)C(=O)N1[C@H]3c4cc(Cl)ccc4OC[C@@H]3[C@H](c3ccccc3)[C@]1(C)C(=O)N2
 : 1.5, x, 5, 5, 1.7, 8, x, i, -2.6
44: CCCn1c2ccccc2c2cnn(CC(=O)NCCCN3CCCCC3CC)c(=O)c21 (stereo not drawn)
 : -8.9, 1, -3, -7, 4.5, 1, 0.69, i, 8.2
45: O=C(NCc1ccc(N2CCCC2=O)cc1)NC1CCCCC1
 : 3.2, -4, x, x, x, -10, 0.76, x, -1.5
46: O=C(OCc1ccc([N+](=O)[O-])cc1)c1ccc2ccccc2n1
 : 1.4, -7, 8, 1, -0.5, -5, 0.75, i, -0.7
47: CC(C)(C)c1ccc(OCCSc2nc3ccccc3n2CC(=O)O)cc1
 : 6.2, x, -31, -49, -12, -6, 0.68, i, -0.7
48: COc1ccc(NC(=O)CSCC(=O)N(C)CC(=O)Nc2cccc3ccccc23)cc1
 : 5.0, -2, -10, -4, -2.5, 1, 0.64, i, -3.2
49: O=C(COc1ccccc1-c1ccccc1)NN=C1CCCC1
 : 3.4, 9, -7, -2, -1.1, -7, 0.72, i, -0.6
50: Cc1ccc(C)c(NC(=O)NNC(=O)c2cc3ccccc3cc2O)c1
 : -8.1, -1, 6, -4, -1.5, 4, 0.72, x, -5.9
51: CCn1nnc(NC(=O)c2sc3ccccc3c2Cl)n1
 : 4.6, 0, x, x, x, 2, 0.66, x, 0.3
52: C/C(=N\NC(=O)COc1cccc(C)c1)c1ccc2ccccc2c1O
 : x, -10, x, x, x, 7, x, i, 1.8
53: CCc1cc(C(=O)Nc2nnc(C3CC3)s2)sc1C
 : 3.6, 3, 1, 13, 1.5, -7, 0.68, i, 0.7
54: Nn1c(SCC(=O)NC2CCS(=O)(=O)C2)nc2scc(-c3ccccc3)c2c1=O (stereo not drawn)
 : 1.6, 2, x, x, x, 6, 0.66, i, 1.4
55: CCn1c(CNC(=O)C23CC4CC(CC(C4)C2)C3)nnc1SCC(=O)Nc1nnc(C)s1
 : 5.0, -9, -1, 9, 0.3, 1, 0.78, i, 3.3
56: Cc1ccccc1CSCCNC(=O)Nc1ccccc1
 : 1.9, -5, -26, -23, 2.5, -5, 0.65, i, 3.9
57: COc1ccccc1NC(=O)c1c(Br)cnn1C
 : 0.0, -3, -4, 1, -2.0, 9, 0.7, i, 1.0
58: COc1ccc(Cl)cc1NC(=O)c1[nH]nc(OC)c1[N+](=O)[O-]
 : 4.7, 2, -1, 1, -2.1, 11, 0.71, i, 2.0
59: O=C(Nc1cccc(C(=O)N2CCCc3ccccc32)c1)c1ccccc1
 : 1.5, -8, -12, -10, -1.7, -5, 0.65, i, 0.5
60: NNC(=O)c1oc2nc(-c3ccco3)cc(-c3ccco3)c2c1N
 : 12, -10, -14*, 10*, 0.2*, -6, 0.65, i, 9.8
61: OCCC1CN(Cc2cccn2-c2cccnc2)CCN1CCc1ccccc1 (stereo not drawn)
 : 2.0, 36, 12, 8, 1.1, 5, 0.68, i, -0.5
62: Cc1ccc(C(=O)NC(=S)Nc2ccccc2C(F)(F)F)cc1C
 : 1.2, -2, x, x, x, 4, 0.72, x, 4.4

Assay outcomes: PubChem BioAssay, several laboratories
